Compound activity (PubChem)
ClpP mod – qHTS Assay for Activators of ClpP. 340,000 compounds, 1.9% hits. ATP-dependent Clp protease proteolytic subunit (Bacillus subtilis (strain 168)), P80244. Potency, µM (titrated, usually from 57.5 µM), inactives show top-dose activity change, negative = active. purified B. subtilis ClpP, FRET peptide cleavage, 20 min; active = well fitted falling curve with a large enough effect; inconclusive = small, poorly fitted or top-dose-only effect; inactive = no such curve, though single readings can be large or run the other way; further: the source files actives as falling curves though it sought activators and does not explain the sign; nearly all actives have a fitted effect of over 65% in size; many hits overshoot -100%
Target sequence (P80244 whole entry, looked up): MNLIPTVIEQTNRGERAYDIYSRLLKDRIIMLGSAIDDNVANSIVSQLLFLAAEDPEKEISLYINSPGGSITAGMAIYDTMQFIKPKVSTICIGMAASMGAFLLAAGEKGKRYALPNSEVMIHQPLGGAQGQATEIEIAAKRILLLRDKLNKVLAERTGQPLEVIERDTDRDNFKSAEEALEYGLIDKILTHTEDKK
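ClpP 10 microg/mL final, pH 8 Tris/KCl buffer with BSA, glycerol, Tween-20; compound pinned in; FRET-FV substrate; RT 20 min; Ex320/Em430; ΔFRET vs ADEP 5.8 microM, DMSO, no enzyme.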
Active calls of the source: *; ? = inconclusive. Potency means the concentration at half of the fitted maximal effect.

A first look:
SMILES,ClpP mod
CC(=O)c1ccc(Oc2nc(C)nc3c2oc2ccccc23)cc1,-2.0%
O=C(NC1CC(=O)N(c2cccc(F)c2)C1)C(c1ccccc1)c1ccccc1 (stereo unspecified),0.6%
CC(=O)Nc1cccc(C(=O)NCc2ccc3c(c2)CCN3C(=O)c2ccc(F)cc2)c1,-0.2%
CCCCN1C(=O)c2[nH]nc(-c3ccccc3O)c2C1c1ccc(C(C)(C)C)cc1 (stereo unspecified),-1.2%
CCc1ccccc1N1CC(c2nc3ccccc3n2Cc2cccc(C)c2)CC1=O (stereo unspecified),0.5%
COCCCNc1nc2c(-c3cccc(Br)c3)nnn2c2ccccc12,-2.3%

All compounds of this part, from the first entry:
SMILES,ClpP mod
CC(=O)c1ccc(Oc2nc(C)nc3c2oc2ccccc23)cc1,-2.0%
O=C(NC1CC(=O)N(c2cccc(F)c2)C1)C(c1ccccc1)c1ccccc1 (stereo unspecified),0.6%
CC(=O)Nc1cccc(C(=O)NCc2ccc3c(c2)CCN3C(=O)c2ccc(F)cc2)c1,-0.2%
CCCCN1C(=O)c2[nH]nc(-c3ccccc3O)c2C1c1ccc(C(C)(C)C)cc1 (stereo unspecified),-1.2%
CCc1ccccc1N1CC(c2nc3ccccc3n2Cc2cccc(C)c2)CC1=O (stereo unspecified),0.5%
COCCCNc1nc2c(-c3cccc(Br)c3)nnn2c2ccccc12,-2.3%
CCC(Sc1nnc(-c2ccc(OC)cc2)c(-c2ccc(OC)cc2)n1)C(=O)Nc1cccc(OC)c1 (stereo unspecified),-1.5%
COc1cc(Cl)c(C)cc1NC(=O)CN1c2ccccc2S(=O)(=O)c2ccccc21,?
Cc1cc(C)cc(NC(=O)CNS(=O)(=O)c2ccc3nc(C)sc3c2)c1,-3.9%
Cc1ccc(S(=O)(=O)N(CC(=O)N2CCc3ccccc3C2)c2ccc(C)c(C)c2)cc1,4.0%
COc1ccc(NC(=O)[C@H]2O[C@@H]3OC(C)(C)O[C@@H]3[C@H]3OC(C)(C)O[C@H]32)c(OC)c1,1.2%
COc1ccc(CNC(=O)CCc2c(C)nc3c(c(C)nn3-c3ccccc3)c2C)cc1,5.0%
CCOc1ccccc1NS(=O)(=O)c1c(C)nc2sccn2c1=O,1.2%
CN(Cc1ccccc1)C(=O)C1CCC(CNS(=O)(=O)c2ccc3c(c2)CCCC(=O)N3)CC1 (stereo unspecified),1.6%
Cc1nn2c(=O)cc(COC(=O)CNC(=O)c3ccc(F)cc3)nc2s1,-3.7%
Cc1cccc(-n2c(=O)c3ccccc3n(Cc3ccccc3C#N)c2=O)c1,-15%
O=C1CCc2cc(S(=O)(=O)NC(C(=O)Nc3cccc(F)c3)c3ccccc3)ccc2N1 (stereo unspecified),0.1%
Cc1cc(-c2ccc(S(=O)(=O)N3CCN(c4ccc(Cl)cc4)CC3)s2)on1,4.4%
CCCc1cc(N2CCN(c3ccc(OC)cc3)CC2)n2cnnc2n1,0.6%
CCc1nnc(NC(=O)c2nc(SCc3ccccc3F)ncc2Cl)s1,-3.7%
Cc1ccc(Nc2sc(C(=O)c3ccccc3)c(N)c2C(=O)Nc2ccc(Cl)cc2)cc1,1.4%
O=C1CCC[C@@H]2C[C@@]3(C[C@@H]4CCN1[C@H]24)Nc1ccccc1NC3=NCc1ccccc1,2.7%
COc1ccc(-c2nn3c(=O)cc(CN4CCN(C(=O)c5ccc(OC)c(OC)c5)CC4)nc3s2)cc1,4.1%
CC(=O)c1ccc(NC(=O)Cn2ncc3c(C)n(Cc4ccc(F)cc4)c(C)c3c2=O)cc1,-8.8%
COc1cc2c(C(=O)N(C)c3cccc(C(F)(F)F)c3)cn(CC(C)C)c(=O)c2cc1OC,-2.0%
O=C(CCCn1c(=O)c2sccc2n(Cc2cccc(Cl)c2)c1=O)NCc1ccc2c(c1)OCO2,-3.3%
CCc1ccc2nc(N(CCN(CC)CC)C(=O)c3cccs3)sc2c1,-5.3%
CN(C)S(=O)(=O)c1ccc(C(=O)NCCSc2c(-c3ccc(Br)cc3)[nH]c3ccccc23)cc1,-6.6%
Cc1ccc(N2CC(C)Cn3c2nc2c3c(=O)n(Cc3cccc(Cl)c3)c(=O)n2C)cc1 (stereo unspecified),-2.0%
CCOc1ccccc1NC(=O)c1cc(S(=O)(=O)N2CCOCC2)cn1C,-2.0%
Cc1cccc(NC(=O)Nc2nnc(N(C)Cc3ccccc3)s2)c1,0.3%
Cc1ccc(Sc2c(C)nn(-c3ccccc3)c2OC(=O)C(C)(C)C)cc1,-1.1%
CN(C)c1ccc(C2C=C(c3ccccc3)Nc3nnnn32)cc1 (stereo unspecified),-9.3%
CC(=O)c1ccc(NC(=O)C2CCCN(S(=O)(=O)c3cn(C)cn3)C2)cc1 (stereo unspecified),1.0%
CC(C)OCCCn1c(SCc2ccccc2C#N)nc2c(sc3ccccc32)c1=O,-2.7%
O=C(COC(=O)c1ccccc1OCc1cccc(Br)c1)Nc1ccc(Br)cc1,-4.5%
COc1cc(OC)c(NC(=O)N2CCCn3nc(C)cc32)cc1Cl,-0.2%
CC(=O)c1ccc(NS(=O)(=O)c2ccc3[nH]c4c(c3c2)CCCCCC4)cc1,-0.5%
CCc1ccc(C2Sc3ccccc3NC3=C2C(=O)c2ccccc23)cc1 (stereo unspecified),-0.6%
CCOCCCNC(=O)C(c1ccccc1)N(Cc1cccs1)C(=O)c1ccc(NC(C)=O)cc1 (stereo unspecified),-0.8%
Cc1nn2c(=O)cc(COC(=O)c3ccccc3NC(=O)COc3ccccc3C)nc2s1,?
COc1ccc(NC(=O)CCS(=O)(=O)c2nc(-c3ccc4c(c3)OCO4)cc(C(F)(F)F)n2)cc1,3.2%
COc1ccc(-n2ncc3c2ncn2nc(-c4ccc(Cl)cc4Cl)nc32)cc1,-23%
CCCCC1CCC(C(=O)N2CC(=O)Nc3ccc(Cl)cc3C2c2ccc(F)cc2)CC1 (stereo unspecified),-6.5%
O=C(Nc1cc(F)ccc1F)c1cnn2c(C(F)F)cc(-c3ccccc3)nc12,2.3%
O=C(O)Cn1nnc(-c2ccc(OCc3cccc(C(F)(F)F)c3)cc2)n1,0.2%
Cc1ccc(Oc2nc3c(c(=O)n(Cc4ccccc4)c(=O)n3C)n2C)cc1C,2.3%
O=C(Nc1ccc(Br)cc1)C1CCCN(S(=O)(=O)c2ccc(Br)s2)C1 (stereo unspecified),0.2%
CCOc1ccccc1CNc1nc2nc(C)cc(C)n2n1,3.6%
COC(=O)c1scc(-c2ccc(C)cc2)c1S(=O)(=O)Nc1cc(Cl)ccc1C,-5.0%
Nc1ccc(/C=C/c2ccnc3ccccc23)c([N+](=O)[O-])c1,0.5%
CCCC(=O)Nc1ccc2nn(-c3ccc(CC)cc3)nc2c1,4.2%
CCCCN(C)CCCNC(=O)CN1N=C(c2ccc(OC)cc2)CCC1=O,0.9%
CCCCOc1ccc(C2C(=O)N(C3CCCCC3)CC(=O)N2C2CCCCC2)cc1 (stereo unspecified),0.3%
CC(=O)Nc1cccc(NC(=O)CSc2nccn2C2CCCC2)c1,0.9%
COc1ccc(NC(=O)c2ccc3oc(=O)c(S(=O)(=O)c4ccc(C)cc4)cc3c2)cc1OC,-2.8%
O=C(CNC(=O)c1ccccc1F)OCc1cc(=O)n2nc(C3CCCCC3)sc2n1,-4.5%
COc1ccccc1C(=O)Nc1nc2ccc(S(=O)(=O)N3CCCC3)cc2s1,?
CC(C)CC(=O)Nc1nnc(S(=O)(=O)N(CC(C)C)c2ccccc2)s1,-4.6%
CCc1ccc(S(=O)(=O)c2nnn3c2nc(NC(C)C)c2sccc23)cc1,-11%

Of the compounds above, four contain bromine.
SMILES,ClpP mod
COCCCNc1nc2c(-c3cccc(Br)c3)nnn2c2ccccc12,-2.3%
CN(C)S(=O)(=O)c1ccc(C(=O)NCCSc2c(-c3ccc(Br)cc3)[nH]c3ccccc23)cc1,-6.6%
O=C(COC(=O)c1ccccc1OCc1cccc(Br)c1)Nc1ccc(Br)cc1,-4.5%
O=C(Nc1ccc(Br)cc1)C1CCCN(S(=O)(=O)c2ccc(Br)s2)C1 (stereo unspecified),0.2%

Next section:
SMILES,ClpP mod
COc1ccc(CNc2ncnc3onc(-c4ccc(F)cc4)c23)cc1,-2.4%
CCOC(=O)c1cc2c(=O)n3ccccc3nc2n(CCOC)c1=NC(=O)c1c(-c2ccccc2Cl)noc1C,-20%
CCCSc1nc2sc3c(c2c(=O)n1-c1ccc(C)cc1)CCCC3,-3.0%
Cc1ccc2nc3c(cc(C#N)c(=O)n3-c3nnc(SCc4ccccc4Cl)s3)c(=O)n2c1,?
CCCCn1cc(S(=O)(=O)c2ccc(CC)cc2)c(=O)c2cc(F)c(N3CCCC(C)C3)cc21 (stereo unspecified),16µM*
COc1ccc2c(CNC3CCCC3)c(C(=O)O)n(Cc3ccccc3C)c2c1,?
Cc1ccc2c(c1)-c1c(cnc3cc(-c4ccc(F)cc4)nn13)CO2,-1.3%
Cc1cccc(N2CCN(C(=O)CCc3nnc4n(CC(C)C)c(=O)c5ccccc5n34)CC2)c1C,-16%
COC(=O)c1c(NC(=O)C(C)Oc2ccc(Cl)c(C)c2)sc(C)c1C (stereo unspecified),?
COc1ccc(C)c2sc(NC(=O)c3ccc(S(=O)(=O)N4CCCCC4)cc3)nc12,-3.2%
CC(=O)c1ccc(NC(=O)CCCc2nc(-c3cccc(C)c3)no2)cc1,0.7%
COc1ccc(CCN2C(=O)N(c3ccc(F)cc3)C(=O)C2CC(=O)Nc2ccccc2)cc1 (stereo unspecified),-0.4%
COc1ccccc1NC(=O)c1oc2ccccc2c1NC(=O)Cc1cccs1,3.9%
CCOc1cc(C(=O)Nc2ccc3nc(Nc4cccc(Cl)c4)cc(C)c3c2)cc(OCC)c1OCC,4.1%
CCOc1ccc(NC(=O)c2cnn3c(C(F)F)cc(-c4ccc(C)cc4)nc23)cc1,-9.0%
O=c1c(NCCc2ccc(Cl)cc2)nccn1-c1ccccc1,-14%
O=C(NCc1ccc(Cl)cc1)C1CCN(C(=O)c2cnn(-c3ccccc3)c2-n2cccc2)CC1,0.1%
COc1ccc(N2CCN(C(=O)c3ccc(NC(=O)c4nsc5ccccc45)cc3)CC2)cc1,0.3%
CCCS(=O)(=O)N1CC(=O)N(c2ccc(Cl)cc2)C(C)(C(=O)NC2CCCC2)C1 (stereo unspecified),2.3%
COCCCn1c(=N)c(C(=O)NC2CCCC2)cc2c(=O)n3cc(C)ccc3nc21,4.1%
CCOc1ccc(OCC)c(Nc2cc(C)nc3nc(-c4ccco4)nn23)c1,-13%
O=C(Nc1ccccc1Cl)[C@H](CSCc1ccccc1)N1Cc2ccccc2C1=O,-0.6%
CC(=O)c1ccc(N2CCN(C(=O)NCc3noc4ccc(C)cc34)CC2)cc1,-9.1%
Clc1ccc(NCc2nc3ccccc3n2CCOc2ccccc2)cc1,3.8%
O=C(Cn1c(=O)oc2cc(S(=O)(=O)N3CCCC3)ccc21)Nc1ccc(OC(F)(F)F)cc1,-1.1%
Cc1cccc(N2CCn3c2nc2c3c(=O)n(CCCc3ccccc3)c(=O)n2C)c1,?
CCOc1cccc(C2c3[nH]c4ccccc4c3CCN2C(=O)CCC2CCCC2)c1 (stereo unspecified),-1.2%
C=C(C)Cn1c(=O)c2c(nc3n2CCN3c2ccc(CC)cc2)n(C)c1=O,-3.1%
Cc1ccc(CCNC(=O)c2cc3sccc3n2Cc2ccc(F)cc2)cc1,?
CCc1ccc(CNC(=O)CCCN2C(=O)CCn3nc(-c4cccn4C)cc32)cc1,0.0%
Cc1cccc(NC(=O)C(=O)NCCc2csc(-c3ccc(C(F)(F)F)cc3)n2)c1C,-6.5%
CCn1cc(C(=O)N2CCN(c3cc(Cl)ccc3C)CC2)c(=O)c2cc(S(=O)(=O)N3CCOCC3)ccc21,1.3%
CCN(C(=O)c1coc(=O)c2ccccc12)c1ccccc1C,0.9%
CCc1ccc(-c2nc3c(=O)n(C)c(=O)nc-3n(CC)n2)cc1,-0.5%
CCOc1ccc2nc(Cl)c(C3CC(c4ccccc4)=NN3C(=O)CCC(=O)O)cc2c1 (stereo unspecified),-25%
C=Cc1ccc(Cn2c(SCC(=O)N3CCN(c4ccc(F)cc4)CC3)nc3ccccc32)cc1,-4.0%
CCOC(=O)c1c(C)[nH]c(C)c1S(=O)(=O)N1CCCC(C(=O)Nc2ccc(F)cc2F)C1 (stereo unspecified),-0.3%
O=C(Nc1ncc(Cc2ccccc2Cl)s1)c1ccc2c(c1)CC(c1ccccc1)OC2=O (stereo unspecified),-11%
COc1ccc(CCC(=O)NCc2ccc3c(c2)CCN3C(=O)c2ccc(Cl)cc2)cc1,-1.0%
CCOc1ccc(NC(=O)c2nc(S(=O)(=O)Cc3ccc(F)cc3)ncc2Cl)cc1,1.2%
COc1ccc(CCNC(=O)c2ccc3c(c2)nc2n3CCOC2)cc1OC,-0.6%
O=C(Cn1c2ncccc2c(=O)n1-c1ccccc1)NCc1ccccc1,4.4%

Not all compounds are listed. The share of hits here may be higher or lower than overall.
